MBNL1 CUG block = blocks human MBNL1 binding to CUG repeat RNA | TR-FRET MBNL1-His/biotin-(CUG)12 binding, 665/545 ratio | Potency, µM (titrated, usually from 57.5 µM), for the others: at the top dose activity change, negative = inhibition, most hits filed as inhibitors | hit rate 0.036% among 280,000; active means well fitted inhibition curve with a large enough effect in the signal ratio, with a control signal flat, not every such curve was filed as active; inconclusive means small, poorly fitted or top-dose-only effect, or effect the other way, or a change in a side signal; inactive means no such curve, though single readings can be large or run the other way; the % refers to the signal ratio; further: potency means the concentration at half of the fitted maximal effect; on the % scale 0 is the no-effect control and ±100 the full control effect
Target sequence (Q9NR56 whole entry, looked up): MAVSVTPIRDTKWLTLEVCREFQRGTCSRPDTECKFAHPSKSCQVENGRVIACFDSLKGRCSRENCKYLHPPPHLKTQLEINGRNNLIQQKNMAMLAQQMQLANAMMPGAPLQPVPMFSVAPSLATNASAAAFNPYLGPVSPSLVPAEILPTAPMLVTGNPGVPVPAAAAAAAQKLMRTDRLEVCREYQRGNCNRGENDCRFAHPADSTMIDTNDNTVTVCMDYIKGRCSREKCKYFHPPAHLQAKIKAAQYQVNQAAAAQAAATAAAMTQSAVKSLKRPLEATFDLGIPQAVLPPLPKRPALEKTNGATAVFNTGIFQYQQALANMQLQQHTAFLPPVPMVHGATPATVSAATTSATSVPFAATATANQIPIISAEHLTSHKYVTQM
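His-tagged MBNL1 binding to biotinylated (CUG)12 RNA was measured by TR-FRET using terbium anti-His antibody (0.055 ng/ul final) and streptavidin-XL665 (5 nM final). Compounds were titrated 92 nM to 58 uM; 60 min at room temperature.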
TSHR antagonist = human thyrotropin receptor antagonism; P16473; hit rate 0.2% among 330,000; AID 504810; activity change, negative = inhibition, % at 11.5 µM; TSHR-expressing cells, TSH-stimulated cAMP HTRF, 2 h; stronger effect = lower value;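 active means activity change below a set negative limit, meaning inhibition stronger than a set level, cut at about -70% in these data; inconclusive means activity change between two set negative limits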; further: on the % scale 0 is the no-effect control and ±100 the full control effect
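Inhibition of cAMP made by TSHR-expressing cells under TSH stimulation (4nM final, EC80; 2 h, 37 deg C) is quantified with a one-step lysis HTRF kit, anti-cAMP cryptate versus cAMP-d2.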
MLL CXXC-DNA inh = blocks binding of human MLL CXXC domain to DNA. Potency, µM (top dose mostly 115 µM), for inactives: top-dose activity change, negative = inhibition, most hits filed as inhibitors. Q03164. hit rate 0.037% among 290,000. MLL-CXXC / FITC-HOXA9 DNA fluorescence polarization; active means well fitted inhibition curve with a large enough effect in the polarisation, with a control signal flat, not every such curve was filed as active; inconclusive means small, poorly fitted or top-dose-only effect, or effect the other way, or a change in a side signal; inactive means no such curve, though single readings can be large or run the other way; the % refers to the polarisation; further: potency means the concentration at half of the fitted maximal effect
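Steps: dispense CXXC domain solution (7 uM) → pin compounds or unlabeled HOX-A9 DNA control → 5 min ambient → add FLSN-HOX-A9 solution (50 nM) → spin → 30 min ambient → fluorescence polarization. Tris pH 7.5/NaCl/DTT/BSA buffer.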
Mito fusion yeast = blocks mitochondrial division or promotes mitochondrial fusion; Potency, µM (doses to about 46.1 µM), for inactives: at the highest dose growth rescue (activation), most hits filed as activators; S. cerevisiae fusion-defective mutant growth rescue, CellTiterGlo 48 h; hit rate 0.23% among 320,000;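 further: potency means the concentration at half of the fitted maximal effect; % of control where 0% means no effect; nearly all actives have a fitted effect of over 45% in size; temperature-sensitive fusion mutants such as fzo1-1 at 37 °C on non-fermentable ethanol glycerol medium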
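Luminescent cell viability in 1536-well qHTS format served as the measure of rescued growth in ts fusion-mutant S. cerevisiae cultured on non-fermentable YPEG for 48 hours at 37C.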
ASM inhibitor = human S-ASM enzyme inhibition. AID 504937. placental ASM, HMU-PC fluorogenic substrate, 60 min. P17405. hit rate 0.006% among 340,000. Potency, µM (highest dose often 57.5 µM), inactives show at the top dose activity change, negative = inhibition, usual class: inhibitors; further: potency means the concentration at half of the fitted maximal effect
Target sequence (P17405 47-631 limits assumed): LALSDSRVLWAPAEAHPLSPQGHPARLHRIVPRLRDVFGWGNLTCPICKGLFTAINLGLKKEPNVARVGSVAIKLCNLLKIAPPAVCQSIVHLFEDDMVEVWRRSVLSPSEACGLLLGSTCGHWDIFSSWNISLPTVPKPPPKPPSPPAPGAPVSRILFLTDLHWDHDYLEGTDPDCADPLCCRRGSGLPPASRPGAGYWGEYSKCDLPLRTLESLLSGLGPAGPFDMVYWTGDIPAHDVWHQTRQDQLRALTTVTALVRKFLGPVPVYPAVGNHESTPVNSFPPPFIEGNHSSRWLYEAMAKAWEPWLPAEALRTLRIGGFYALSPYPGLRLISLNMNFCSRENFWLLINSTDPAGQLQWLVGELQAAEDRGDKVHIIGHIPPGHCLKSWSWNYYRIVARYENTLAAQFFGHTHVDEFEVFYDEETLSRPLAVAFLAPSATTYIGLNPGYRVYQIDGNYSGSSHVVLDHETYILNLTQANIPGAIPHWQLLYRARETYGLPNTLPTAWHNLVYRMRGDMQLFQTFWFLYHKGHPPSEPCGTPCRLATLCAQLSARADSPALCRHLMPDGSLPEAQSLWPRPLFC
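Human placenta-derived ASM enzyme was preincubated with compound for 10 minutes at room temperature, then given fluorogenic substrate HMU-PC0 (9 uM final) for 60 minutes at 37 °C; a pH 10 stop preceded fluorescence reading at Ex 386/Em 447 nm.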
Integrin act MD = integrin-mediated muscular dystrophy alleviation activation | alpha7betagal myoblasts, beta-gal FDG fluorescence, 48 h | hit rate 0.064% among 350,000 | AID 624291 | Potency, µM (doses to about 38.3 µM), inactives show at the highest dose activation, hits mostly activators;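 further: potency means the concentration at half of the fitted maximal effect; 100% = response of the positive control SU9516; nearly all actives have a fitted effect of over 60% in size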
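Alpha7betagal+/- myoblasts (passage 13) were plated 16-24 hr, then exposed to compounds (1:260 dilution of DMSO stock) for 48 hours at 37C. After MPER lysis, β-galactosidase reporter activity was read as FDG fluorescence (ex 480/em 540) after 30 minutes.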
TCR act = T cell receptor activation; primary human leukocytes, anti-CD3, IL-2 HTRF, 48 h; Potency, µM (top dose mostly 9.22 µM), without a hit: top-dose activation of IL-2 secretion, usual class: activators; 330,000 tested, under 10 active; AID 504894; further: % of control where 0% means no effect
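Primary human leukocytes incubated 48 hr with anti-CD3 beads plus compound, without co-stimulation. Secreted IL-2 measured by HTRF (europium cryptate/d2 anti-IL-2 pair, 320 nm excitation, 665 nm emission).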
TSG101-PTAP inh = blocks PTAP/TSG101 interaction to inhibit HIV-1 budding. Q99816. Fluorescence polarization, FITC-PTAP peptide / Tsg101 binding. Potency, µM (titrated, usually from 115 µM), for inactives: at the top dose activity change, negative = inhibition, most hits filed as inhibitors. 340,000 tested, under 10 active. AID 493005; active means well fitted inhibition curve with a large enough effect in the main read-out, with a control signal flat, not every such curve was filed as active; inconclusive means small, poorly fitted or top-dose-only effect, or effect the other way, or a change in a side signal; inactive means no such curve, though single readings can be large or run the other way; further: potency means the concentration at half of the fitted maximal effect; % of control where 0% means no effect
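Compounds were pin-transferred onto Tsg101 binding domain (10 uM final) in HEPES pH 7.5 buffer, then FITC-PTAP peptide was added at 50 nM final. After 20 min at RT, polarization reported peptide displacement across a qHTS concentration series.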
AT treatment = potential ataxia-telangiectasia treatment; […] A-T fibroblasts, KAP-1 phosphorylation AlphaLISA; neocarzinostatin DNA damage 30 min before lysis; Potency, µM (top dose mostly 57.5 µM), for the others: at the top dose activation, hits mostly activators; hit rate 0.19% among 320,000; further: potency means the concentration at half of the fitted maximal effect; % of control where 0% means no effect; nearly all actives have a fitted effect of over 45% in size
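ATM-like activity read as KAP-1 phosphorylation via AlphaLISA donor/acceptor antibody pairs after lysis and 6 hr at 25C. Cells were ATM-null patient fibroblasts ([…], hTERT), dosed 60 min, then exposed to the DSB inducer NCS for 30 min.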
Active calls of the source: *; ? = inconclusive; . = not tested or not shown; [ ] = another dose, or the depositor's remark. Unless noted, the call rests on the fitted dose curve; in most records, active means well fitted curve in the direction sought with a large enough effect; inconclusive means small, poorly fitted or top-dose-only effect, or another doubt; inactive means no such curve, though single readings can be large; an effect the other way counts as inactive or inconclusive. An excerpt; rates above refer to the full screens.

SMILES	MBNL1 CUG block	TSHR antagonist	MLL CXXC-DNA inh	Mito fusion yeast	ASM inhibitor	Integrin act MD	TCR act	TSG101-PTAP inh	AT treatment
COc1ccc(C2CC(=O)NC3=C2C(=O)CCC3)cc1Cl (stereo unspecified)	5.3%	21.6	-0.2%	1.2%	-0.9%	2.1%	3.8%	-1.0%	0.7%
COc1ccc(OC)c(CN(CCCN2CCOCC2)S(=O)(=O)c2ccc(NC(C)=O)cc2)c1	0.0%	16.5	4.3%	-2.0%	1.2%	-19.6%	-2.0%	-3.5%	9.8%
C=C(C)Cn1c(C2CC(=O)N(Cc3ccccc3)C2)nc2ccccc21 (stereo unspecified)	-7.2%	-2.8	6.7%	-5.1%	4.1%	11.7%	-5.9%	-1.5%	5.2%
Cc1nn(CC#N)c(=O)n1-c1ccc(C(C)C)cc1	-1.9%	0.5	16.0%	1.1%	-1.2%	5.3%	-1.2%	1.0%	-2.3%
O=[N+]([O-])c1cc(Cl)ccc1N1CCN(c2cccc(C(F)(F)F)c2)CC1	-8.1%	-13.7	-2.3%	0.5%	-12.6%	20.5%	-1.8%[46.1 µM]	-2.0%	-1.9%
O=[N+]([O-])c1cc(C(F)(F)F)ccc1N1CCN(CCO)CC1	.	-8.6	3.5%	2.4%	-5.1%	-30.6%	-0.1%	-4.0%	-5.9%
CS(=O)(=O)N1CCc2cc(C(=O)NC3CC3)ccc21	3.8%	-7.8	-7.5%	-1.5%	5.9%	-13.4%	5.3%	-0.6%	-1.3%
O=C(CSc1nnc2c(Cl)cc(C(F)(F)F)cn12)Nc1ccc2c(c1)OCO2	94.7%[activator]	22.9	-12.3%	2.9%	-2.1%	16.0%	-2.6%	-7.9%	-10.5%
COc1cc2c(cc1OC)CN(C(=O)/C=C/c1ccc([N+](=O)[O-])cc1)CC2	?	-11.2	13.7%	18.1%	-4.0%	-13.4%	-8.0%	-1.6%	4.1%
CCOC(=O)N1CCN(C(=O)CSc2nnc(-c3cccs3)o2)CC1	-2.6%	8.8	-10.8%	0.9%	-0.3%	4.8%	-4.9%	-0.4%	3.9%
COc1cc2c(cc1OC)CN(C(=O)c1ccccc1C(=O)O)CC2	1.2%	-1.1	4.8%	-2.9%	-0.1%	?	0.4%	-4.2%	2.6%
C=CCNc1nc(N)c([N+](=O)[O-])c(NC2CCCCC2)n1	-5.6%	15.7	1.6%	-39.2%[inhibitor]	-2.6%	13.8%	6.7%	-6.6%	2.9%
O=c1c2cccnc2[nH]c(=S)n1CCCN1CCN(c2ccccc2F)CC1	-6.5%	9.1	-2.3%	-3.0%	1.6%	-3.3%	1.4%	-9.3%	0.7%
COc1ccc(NC(=O)c2sc(Cl)nc2-c2ccccc2)cc1	175.8%[activator]	-4.1	3.4%	24.9%	-1.0%	-37.2%	-0.2%[46.1 µM]	-1.4%	-3.3%
CC1=C(C(=O)Nc2ccccc2)C(c2cccnc2)n2ncnc2N1 (stereo unspecified)	-7.7%	5.1	-11.8%	-0.3%	4.5%	1.0%	-36.2%	-6.8%	3.5%
COc1cc2c(cc1OC)CN(C(=O)CNS(=O)(=O)c1ccc(C)c(C)c1)CC2	-7.1%	1.0	6.0%	-1.0%	-0.5%	13.1%	-2.2%	-4.8%	-0.5%
Cn1c(CCNC(=O)c2ccc(Cl)c(Cl)c2)nnc1SCc1ccc(Cl)c(Cl)c1	-7.8%	-4.1	2.7%	1.2%	-20.1%	-26.3%[7.66 µM]	0.1%	-2.0%	4.8%
Nc1nc(NCCOCCO)nc(NC2CCCCC2)c1[N+](=O)[O-]	3.1%	4.8	15.4%	16.0%	-1.5%	-37.4%	-0.6%	-6.2%	-26.7%
Cn1c(SCc2cccc(F)c2)nnc1-c1ccncc1	13.5%	1.2	9.1%	-7.5%	2.3%	-1.1%	1.4%	-3.5%	-17.1%
Cc1ccccc1/C=C\c1nc2ccccc2c(=O)n1Cc1ccccc1	.	74.9	3.7%	8.9%	-7.6%	-31.7%	4.2%	-3.5%	-0.2%

Entries listed so far with a nitro group on carbon, in the order listed:
SMILES	MBNL1 CUG block	TSHR antagonist	MLL CXXC-DNA inh	Mito fusion yeast	ASM inhibitor	Integrin act MD	TCR act	TSG101-PTAP inh	AT treatment
O=[N+]([O-])c1cc(Cl)ccc1N1CCN(c2cccc(C(F)(F)F)c2)CC1	-8.1%	-13.7	-2.3%	0.5%	-12.6%	20.5%	-1.8%[46.1 µM]	-2.0%	-1.9%
O=[N+]([O-])c1cc(C(F)(F)F)ccc1N1CCN(CCO)CC1	.	-8.6	3.5%	2.4%	-5.1%	-30.6%	-0.1%	-4.0%	-5.9%
COc1cc2c(cc1OC)CN(C(=O)/C=C/c1ccc([N+](=O)[O-])cc1)CC2	?	-11.2	13.7%	18.1%	-4.0%	-13.4%	-8.0%	-1.6%	4.1%
C=CCNc1nc(N)c([N+](=O)[O-])c(NC2CCCCC2)n1	-5.6%	15.7	1.6%	-39.2%[inhibitor]	-2.6%	13.8%	6.7%	-6.6%	2.9%
Nc1nc(NCCOCCO)nc(NC2CCCCC2)c1[N+](=O)[O-]	3.1%	4.8	15.4%	16.0%	-1.5%	-37.4%	-0.6%	-6.2%	-26.7%

The list continues.
SMILES	MBNL1 CUG block	TSHR antagonist	MLL CXXC-DNA inh	Mito fusion yeast	ASM inhibitor	Integrin act MD	TCR act	TSG101-PTAP inh	AT treatment
COc1cc2c(cc1OC)CN(C(=O)C(C)(C)C)CC2	8.4%	8.4	3.1%	0.7%	1.2%	0.7%	0.4%	-9.1%	25.5%
Clc1nn2cnnc2c2ccccc12	-1.5%	-1.8	-0.5%	-5.8%	2.6%	-33.2%	-2.2%	-2.5%	-0.9%
CC(C)Oc1ccc(C(=O)/C=C2/C(=O)Nc3ccccc32)cc1	5.8%	-6.7	-2.3%	-90.5%[inhibitor]	-11.6%	-58.3%	2.2%	0.7%	-2.2%
CC(C)CCn1c(=S)[nH]c2ncccc2c1=O	5.6%	5.4	3.6%	-4.0%	1.4%	4.1%	1.9%	-7.3%	2.5%
CC(C)(C)c1ccc(C(=O)NC(=S)Nc2sc3c(c2C#N)CCC3)cc1	-15.1%	-13.8	16.0%	-2.3%	-8.0%	-5.8%	-2.8%[46.1 µM]	-1.1%	.
Cc1ccc(/C=C2/NC(=O)N(Cc3ccccc3)C2=O)o1	30.0%	-5.6	?	18.1%	13.8%	-7.3%	-3.5%[46.1 µM]	24.0%	11.9%
CC(C)c1nc2n[nH]c(N)c2c2c1CCCC2	6.9%	-6.8	7.4%	-0.1%	-0.9%	3.3%	5.1%	-0.6%	6.6%
CS(=O)(=O)N1CCc2cc(C(=O)Nc3ccccc3Br)ccc21	-5.8%	-2.4	2.6%	1.7%	-1.1%	?	0.2%	-6.0%	-3.1%
CCOc1ccc(NC(=O)Cn2nnc(C(=O)NCc3ccc4c(c3)OCO4)c2N)cc1	-9.9%	6.8	3.2%	0.6%	1.3%	19.0%	-3.5%	-8.7%	7.2%
O=c1c2ccccc2nc(-c2ccccc2)n1CCCn1ccnc1	4.7%	-13.5	-5.8%	-2.7%	2.3%	-0.9%	-3.5%	-6.1%	2.0%
Cc1cc(-c2csc(NC(=O)c3ccc(C#N)cc3)n2)c(C)n1Cc1ccccc1	49.6%[activator]	-6.6	3.3%	6.7%	-0.1%	1.0%	-0.6%[46.1 µM]	0.3%	-2.7%
Cc1cc(NC(=O)CSc2nnc(C3CC3)n2Cc2ccccc2)no1	-2.4%	10.9	3.4%	-1.6%	-1.0%	5.8%	5.0%	-6.6%	6.5%
CCOc1ccc(OCCC(=O)N2CCc3cc(OC)c(OC)cc3C2)cc1	-0.9%	16.9	41.5%[activator]	0.2%	0.3%	-1.3%	-0.9%	-6.1%	-6.1%
Cc1cccc(NC(=O)CN2C(=O)CNC2=O)c1	-0.6%	-9.4	4.9%	1.3%	-1.3%	18.4%	-4.7%	-0.3%	-1.8%
Cc1ccc2[nH]c(=O)c(C(c3nnnn3Cc3ccccc3)N3CCc4ccccc43)cc2c1 (stereo unspecified)	?	1.9	9.5%	-6.1%	-14.1%	11.9%[7.66 µM]	-1.9%	-3.1%	.
COc1ccc(S(=O)(=O)N(CCCN2CCOCC2)Cc2cccc3ccccc23)cc1	-9.5%	-10.7	-18.6%	14.4%	0.4%	6.6%	2.1%	-4.1%	-4.3%
